Cruzain inh Det: cruzain (T. cruzi) inhibition with detergent | P25779 | purified cruzain, Z-FR-AMC fluorescence, 0.01% Triton | Potency, µM, for the others: max response, negative = inhibition, actives largely listed as inhibitors | hit rate 0.43% among 200,000; active = well fitted curve in the direction sought with a large enough effect; inconclusive = small, poorly fitted or top-dose-only effect, or another doubt; inactive = no such curve, though single readings can be large; an effect the other way counts as inactive or inconclusive;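 also: plate controls were neutral wells for no effect and buffer without enzyme for full effect; nearly all actives have a fitted effect of over 40% in size; top concentration of the series not given in the record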
Target sequence (P25779 123-467 limits assumed): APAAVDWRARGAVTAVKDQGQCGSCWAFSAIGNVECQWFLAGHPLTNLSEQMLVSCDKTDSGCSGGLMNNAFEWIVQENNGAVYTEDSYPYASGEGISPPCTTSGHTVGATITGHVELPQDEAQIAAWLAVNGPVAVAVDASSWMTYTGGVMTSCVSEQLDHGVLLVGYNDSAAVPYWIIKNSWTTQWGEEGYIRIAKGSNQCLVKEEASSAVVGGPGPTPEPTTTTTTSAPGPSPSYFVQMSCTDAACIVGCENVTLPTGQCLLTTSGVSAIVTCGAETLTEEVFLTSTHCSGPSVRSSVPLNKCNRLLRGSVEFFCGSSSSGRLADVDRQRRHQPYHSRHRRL
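Detergent-containing arm of a paired screen for aggregation-based inhibition: 0.01% Triton X-100 present. Cruzain at 1.5 nM cleaved 2 uM Z-FR-AMC at pH 5.5 with 5 mM DTT; AMC fluorescence gain over 60 s measured activity.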
Cruzain noTriton: cruzain (T. cruzi) inhibition without detergent. P25779. purified cruzain, Z-FR-AMC fluorescence, no detergent. Potency, µM, for the others: max response, negative = inhibition, usual class: inhibitors. hit rate 2.3% among 200,000; active = well fitted curve in the direction sought with a large enough effect; inconclusive = small, poorly fitted or top-dose-only effect, or another doubt; inactive = no such curve, though single readings can be large; an effect the other way counts as inactive or inconclusive;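 also: plate controls were enzyme without inhibitor for no effect and buffer without enzyme for full effect; nearly all actives have a fitted effect of over 40% in size; top concentration of the series not given in the record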
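Detergent-free condition (0.00005% Triton X-100) in acetate buffer pH 5.5 with DTT. 1.5 nM enzyme and compound were pre-mixed 15 min, then 2 uM Z-FR-AMC substrate added; reaction progress from fluorescence change between first and third reads (60 s).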
SARS PLP yeast: SARS-CoV PLP inhibition in yeast. hit rate 0.19% among 330,000. S. cerevisiae expressing SARS-CoV PLpro, growth rescue; control for the full effect not named in the record. Potency, µM (doses to about 32.9 µM), for inactives: at the highest dose activity, positive = growth rescue; also: 0% is about no effect; nearly all actives have a fitted effect of over 55% in size; growth read by luminescence after 48 h
NS1 function inh: influenza NS1 inhibition. S. cerevisiae slowed by influenza A NS1, growth recovery by OD600. Potency, µM (highest dose often 46.1 µM), for inactives: top-dose activity, positive = more growth. hit rate 0.4% among 270,000; also: actives are rising curves; nearly all actives have a fitted effect of over 50% in size
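Recovery from NS1-induced slow growth read by OD600 in budding yeast switched to galactose assay medium (pH 6.0, -URA) at 1:100 dilution. Compound 23 nl per well; the matching strain lacking NS1 serves as control.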
RE007 growth inh: less growth of the S. pombe RE007 Vpr strain; hit rate 0.21% among 360,000; S. pombe RE007 Vpr strain, BacTiter-Glo ATP luminescence, 24 h; control for the full effect not named in the record; Potency, µM (highest dose often 92.2 µM), without a hit: at the highest dose activity change, negative = less growth; AID 651644; active = well fitted falling curve with a large enough effect; inconclusive = small, poorly fitted or top-dose-only effect; inactive = no such curve, though single readings can be large or run the other way;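 also: % is scaled to controls: 0 for no effect and ±100 for the full control effect; nearly all actives have a fitted effect of over 50% in size; the assay follows cell death caused by Vpr and the record does not say whether a fall means rescue or toxicity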
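Fission yeast strain RE007, carrying one chromosomally integrated HIV-1 vpr copy, was seeded at OD 0.01 in PMG+AL medium with 23 nL pinned compound. After 24 h at 30 °C and 99% humidity, viability was read by BacTiter-Glo luminescence.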
2A StopGo: lowers the luciferase signal of an FMDV 2A StopGo reporter. Potency, µM (titrated, usually from 57.9 µM), without a hit: at the top dose signal change, negative = less light. hit rate 1.2% among 410,000. AID 1159524. human cells with a luciferase reporter of 2A StopGo recoding; control for the full effect not named in the record; active = well fitted falling curve with a large enough effect; inconclusive = small, poorly fitted or top-dose-only effect; inactive = no such curve, though single readings can be large or run the other way; tested in HEK293T cells; also: % is scaled to controls: 0 for no effect and ±100 for the full control effect; nearly all actives have a fitted effect of over 45% in size; luciferase light after 4 h
Marburg entry inh: Marburg virus entry inhibition; Marburg virus pseudotyped entry inhibition, cell reporter; control for the full effect not named in the record; about a third of the inactives were read at about 46 µM; hit rate 1.8% among 300,000; Potency, µM (series often up to 37.8 µM), for inactives: at the highest dose activity change, negative = inhibition, actives largely listed as inhibitors; active = well fitted inhibition curve with a large enough effect; inconclusive = small, poorly fitted or top-dose-only effect, or effect the other way; inactive = flat fitted curve, though single readings scatter; tested in HEK293 cells; about a fifth of its hits are not listed in these tables; also: % is scaled to controls: 0 for no effect and ±100 for the full control effect; luciferase read-out
LASV entry inh: Lassa virus entry inhibition; Lassa virus pseudotype entry inhibition, cell reporter; control for the full effect not named in the record; Potency, µM (top dose mostly 37.9 µM), for the others: at the top dose activity change, negative = inhibition, most hits filed as inhibitors; hit rate 1.2% among 300,000; active means well fitted inhibition curve with a large enough effect; inconclusive means small, poorly fitted or top-dose-only effect, or effect the other way; inactive means flat fitted curve, though single readings scatter; tested in HEK293 cells; also: % is scaled to controls: 0 for no effect and ±100 for the full control effect; nearly all actives have a fitted effect of over 50% in size; luciferase read-out
* = called active by the depositor; ? = inconclusive; . = not tested or not shown; & = joins results of further samples; [ ] = dose if it differs, or a comment. Unless noted, calls follow the shape of the dose curve; as a rule, active means well fitted rising curve with a large enough effect; inconclusive means small, poorly fitted or top-dose-only effect; inactive means no such curve, though single readings can be large or run the other way. Potency is read from the fitted curve at half-maximal effect.

SMILES | Cruzain inh Det | Cruzain noTriton | SARS PLP yeast | NS1 function inh | RE007 growth inh | 2A StopGo | Marburg entry inh | LASV entry inh
COc1ccc(Cc2nnc(N=Nc3c(O)[nH]c4ccc(Br)cc34)[nH]c2=O)cc1 | . | . | -4% | . | 18% | -27% | -1% | 13%
Cc1nn(Cc2noc(C(=O)NCc3ccc(F)cc3)n2)c(C)c1Br | -3.0% | 6% | 1% | . | 0% | -11%&-19% | -4%&-4% | -12%
CC(NC(=O)C(=O)N/N=C\c1ccc([N+](=O)[O-])cc1)c1ccccc1 (configuration not stated) | . | . | 1% | -1% | 0% | 44%[activator] | -7%[46.1 µM] | .
COC(=O)C1CCN(C(=O)COC(=O)C2CCN(S(=O)(=O)c3ccc4c(c3)OCCO4)CC2)CC1 | . | . | ? | -4% | -3% | -11% | . | .
Clc1cccc(C2CCN(Cc3nc(CC4CC4)no3)C2)c1 (configuration not stated) | . | . | -1% | -3% | -36% | 2% | ? | 9%[46.1 µM]
Cc1cc(C)c(NC(=O)Cc2csc(C)n2)c(Cl)c1 | -0.4% | -3% | . | . | . | 5% | -5%[46.1 µM] | ?
Cn1nc(C(=O)NNC(=O)CCOc2ccc(C(C)(C)C)cc2)c2ccccc2c1=O | . | . | -2% | . | -11% | 5% | -34%[46.1 µM] | 0%
Cc1ccc(S(=O)(=O)/N=c2\sccn2C)cc1 | -0.2% | -9% | ? | 11% | 2% | 1% | 17% | 8%
Cc1cc(C)n(C(C)CC(=O)Nc2ccc(C)c(F)c2)n1 (configuration not stated) | -2.4% | 1% | . | . | . | -14% | . | -17%[46.1 µM]
COc1ccc(S(=O)(=O)NCC(=O)NCc2cc(=O)n(C)c(=O)n2C)cc1C | . | . | -3% | -19% | -16% | 6% | . | .
Oc1ccccc1Oc1c(F)c(F)nc(N2CCCC2)c1F | -5.4% | -11% | -28% | -36% | ? | 5% | ? | 4.6µM*
O=C(Nc1ccc(S(=O)(=O)N2CCCCC2c2cccnc2)cc1)c1ccc(Br)cc1 (configuration not stated) | -4.0% | -8% | . | . | . | ? | . | ?
Cc1ccc(CN(CCO)CCO)cc1 | . | . | 1% | 4% | 6% | -1% | ? | 3%[46.1 µM]
CCc1n[nH]c(=S)n1/N=C/c1c(O)ccc2ccccc12 | . | . | -4% | -5% | 7% | 9% | . | .
Cc1ccc2nc(Cl)c(/C=N/Nc3nc(C)cc(C)n3)c(=O)n2c1 | -2.7% | -13% | -21% | -5% | -22% | 0% | ? | ?
CCOc1ccc(S(=O)(=O)Nc2nc3ccccc3nc2Nc2ccc(N3CCOCC3)cc2)cc1 | -5.0% | -10% | -23% | 11% | -1% | 4% | ? | ?
Cc1cccc(N2CCN(C3=NC(=O)C(=C4CCCCC4)S3)CC2)c1 | -5.6% | -18% | 0% | -5% | -8%[3.69 µM] | -28% | -39% | 6%
Cc1cc(=O)oc2cc(OCC(=O)NCCN3CCOCC3)c(Cl)cc12 | . | . | -3% | 5% | -16% | -12% | 8%[46.1 µM] | 26%[46.1 µM]
CC1(C)CC(N2CCN(C(c3ccccc3)c3ccccc3)CC2)=CC(=[N+]2CCCCC2)C1 | . | . | -12% | -38% | 30% | 2.8µM* | . | .
Cc1ccc(CNC(=O)CCCCCn2c(=O)c3sccc3n(CC(=O)C(C)(C)C)c2=O)cc1 | -4.3% | ? | . | . | . | -16% | -18%[46.1 µM] | ?
CC(C)NC(=O)CSc1nc(N)c(NC(=O)c2ccco2)c(=O)[nH]1 | . | . | 0% | . | 1% | -18% | 10%[46.1 µM] | 1%
CCCCCn1c(SCC(=O)OCC)nc2cc(C(=O)NCc3ccco3)ccc2c1=O | 2.5% | -24% | 2% | 7% | -2% | -6% | 1% | -9%
COc1ccc(C(=O)NCCc2sc(-c3cccc(F)c3)nc2C)cc1 | -12% | -11% | . | . | . | 9% | . | -23%[46.1 µM]
COc1cc(/C=N/Nc2snc(SC)c2C#N)cc(OC)c1OC | -0.2% | -4% | 5% | -6% | -11% | ? | 1.6µM* | 1.3µM*
CCN(CC)c1cc(C)c2cc(NC(=O)c3ccc(F)cc3Cl)ccc2n1 | -5.8% | -7% | . | . | . | -24% | -7%[46.1 µM] | ?
CCOC(=O)c1noc2ncnc(N(CCC(=O)OC)c3ccccc3)c12 | 3.7% | 7% | . | . | . | -27% | . | 7%[46.1 µM]
Cc1c(Cl)cnc(NC(=O)COC(=O)CCS(=O)(=O)c2ccccc2)c1Cl | -3.3% | -6% | 7% | -5% | 30% | 19% | 21%[46.1 µM] | -5%
Cc1ccc2nc(NC(=O)/C=C/c3ccc4c(c3)OCO4)sc2c1 | 0.5% | ? | 9% | ? | 2% | -7% | 12% | 6%
COc1ccccc1CCNC(=O)C1CCN(C(=O)/C=C/c2ccccc2)CC1 | . | . | 2% | -1% | -7% | 9% | 14%[46.1 µM] | 3%[46.1 µM]
C/C(=N\NC(=O)CCc1ccc(S(=O)(=O)N2CCOCC2)cc1)c1ccc(OC(F)F)cc1 | . | . | 2% | -11% | 21% | -7% | 0%[46.1 µM] | ?
COCCN(C(=S)Nc1cc(C)ccc1C)C(C)c1cccnc1 (configuration not stated) | 0.7% | 13% | 13% | 13% | -4% | -6% | 3% | 9%
COc1ccccc1NC(=O)Cn1c2ccc(F)cc2c2nc3n(c(=O)c21)CCS3 | . | . | -2% | 16% | -10% | -9% | -21%[46.1 µM] | -9%
O=C(c1ccc(OC2CCN(CCO)CC2)cc1)N1CCCC1 | . | . | -1% | 7% | -5% | -7% | 17% | -6%
O=C(c1cccs1)N1CCOCC1 | 3.0% | -1% | -1% | 2% | -11% | -2% | -1% | 17%
CCOC(=O)Cn1nc(-c2ccccc2)nc1-c1ccccc1 | -3.2% | 4% | -3% | -9% | -29% | 20% | -19% | 4%
Cc1ccsc1C(=O)N(CC(C)C)c1c(N)n(Cc2ccccc2)c(=O)[nH]c1=O | . | . | 4% | 3% | -2% | -16% | 5% | 18%
COc1ccc(S(=O)(=O)NNC(=O)Nc2ccc(C)cc2C)c(OC)c1 | . | . | -5% | 7% | 1% | 7% | 22% | 0%
CCOc1ccc(CNC(=O)Cn2nc(C)c3c(C)n(-c4ccc(C)cc4)nc3c2=O)cc1 | -0.3% | 2% | 0% | -2% | 3% | ? | -29%&-29%[46.1 µM] | -28%&-2%[46.1 µM]
Cc1noc(C)c1C(=O)Nc1sc2c(c1C(N)=O)CCCCC2 | 1.1% | 0% | 1% | 0% | 1% | -17% | 0% | ?
O=C(NCc1ccccn1)Nc1ccc(F)cc1 | 5.1% | 1% | 1% | -10% | 31% | 42%[activator] | 8%[46.1 µM] | 14%
CCc1cc(OCCN(C)C)ccc1Cl | . | . | -1% | 1% | 11% | -1% | -6%[46.1 µM] | .
Cc1ccc(C)c(N2CCN(C(=O)C3CCC(CNS(=O)(=O)c4ccc(Br)s4)CC3)CC2)c1 (configuration not stated) | -2.9% | 0% | . | . | . | ? | -18%[46.1 µM] | -5%[46.1 µM]
Cc1cc(OCn2ccc(C(=O)O)n2)ccc1Cl | 3.0% | -4% | 2% | -5% | 14% | -8% | -17% | 4%
O=C(Cc1cccc2ccccc12)NN1C(=O)C2C(C1=O)C1C=CC2C12CC2 (configuration not stated) | -1.9% | -3% | 17% | 1% | -3% | 3% | 27% | 8%
Cc1ccc(NC(=S)NC2CC3CCCC(C2)N3Cc2ccco2)cc1 (configuration not stated) | . | . | -1% | 1% | 0% | -9% | ? | 2%
COc1ccc(CC(=O)NCCCCc2ccccc2)cc1OC | . | . | . | . | -12% | -24% | ? | -25%
CC(=O)c1ccc(NC(=O)C2CCCO2)cc1 (configuration not stated) | . | . | 4% | -23% | 18% | 32%[activator] | . | .
Cc1coc2cc3oc(=O)c(CC(=O)N4C[C@H]5C[C@@H](C4)c4cccc(=O)n4C5)c(C)c3cc12 | . | . | 15% | 35% | -4% | -13% | . | .

Reprinted from the part before: two compounds, then new ones.
SMILES | Cruzain inh Det | Cruzain noTriton | SARS PLP yeast | NS1 function inh | RE007 growth inh | 2A StopGo | Marburg entry inh | LASV entry inh
CC(=O)c1ccc(NC(=O)C2CCCO2)cc1 (configuration not stated) | . | . | 4% | -23% | 18% | 32%[activator] | . | .
Cc1coc2cc3oc(=O)c(CC(=O)N4C[C@H]5C[C@@H](C4)c4cccc(=O)n4C5)c(C)c3cc12 | . | . | 15% | 35% | -4% | -13% | . | .
Cc1ccc(C)c(SCC(=O)NCC(c2ccco2)N2CCCCC2)c1 (configuration not stated) | . | . | ? | . | -28% | -29% | 13µM* | ?
O=C(O)c1cccc(NC(=O)c2ccc3c(c2)C(=O)N(C2CCCCC2)C3=O)c1 | . | . | -6% | ? | 0% | ? | 11% | -3%
COc1ccccc1C1=Nc2cccc3cccc(c23)N1 | -6.3% | 13µM* | -13% | -13% | ? | 3% | 20% | -13%
Cc1cccc2cc(CN(Cc3ccco3)C(=O)c3ccncc3)c(=O)[nH]c12 | -2.6% | -2% | -2% | 3% | -2% | -22% | ? | 3%
O=C(COc1ccc2ccccc2c1)Nc1ccc(Cc2ccncc2)cc1 | -0.6% | -9% | -7% | 0% | -2% | . | ? | 3%

Look-ups from the results shown:
Cc1ccc(C)c(SCC(=O)NCC(c2ccco2)N2CCCCC2)c1 (configuration not stated) – RE007 growth inh: -28%
COc1ccccc1C1=Nc2cccc3cccc(c23)N1 – 2A StopGo: 3%
O=C(COc1ccc2ccccc2c1)Nc1ccc(Cc2ccncc2)cc1 – LASV entry inh: 3%
Cc1cccc2cc(CN(Cc3ccco3)C(=O)c3ccncc3)c(=O)[nH]c12 – Cruzain noTriton: -2%
O=C(O)c1cccc(NC(=O)c2ccc3c(c2)C(=O)N(C2CCCCC2)C3=O)c1 – SARS PLP yeast: -6%

Compound activity (PubChem BioAssay)
